Screening results: PubChem, National Center for Advancing Translational Sciences (NCATS)
2A StopGo: High Throughput Screening for Foot and Mouth Disease Virus Antivirals; human cells with a luciferase reporter of 2A StopGo recoding; control for the full effect not named in the record; Potency, µM (doses to about 57.9 µM), for the others: top-dose signal change, negative = less light; 410,000 compounds, 1.2% hits; active = well fitted falling curve with a large enough effect; inconclusive = small, poorly fitted or top-dose-only effect; inactive = no such curve, though single readings can be large or run the other way; tested in HEK293T cells; also: % is scaled to controls: 0 for no effect and ±100 for the full control effect; nearly all actives have a fitted effect of over 45% in size; luciferase light after 4 h
NS1 function inh: qHTS Assay for Inhibitors of Influenza NS1 Protein Function; Potency, µM (titrated, usually from 46.1 µM), inactives show top-dose activity, positive = more growth; 270,000 compounds, 0.4% hits; S. cerevisiae slowed by influenza A NS1, growth recovery by OD600; also: actives are rising curves; nearly all actives have a fitted effect of over 50% in size
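S. cerevisiae expressing influenza A NS1, grown in glucose, washed, then diluted 1:100 into pH 6.0 -URA galactose medium with 23 nl compound. Growth recovery read as OD600; NS1-free strain serves as control.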
LASV entry inh: qHTS for Inhibitors of binding or entry into cells for Lassa Virus; Lassa virus pseudotype entry inhibition, cell reporter; control for the full effect not named in the record; Potency, µM (top dose mostly 37.9 µM), without a hit: at the highest dose activity change, negative = inhibition, most hits filed as inhibitors; 300,000 compounds, 1.2% hits; active means well fitted inhibition curve with a large enough effect; inconclusive means small, poorly fitted or top-dose-only effect, or effect the other way; inactive means flat fitted curve, though single readings scatter; tested in HEK293 cells; also: % is scaled to controls: 0 for no effect and ±100 for the full control effect; nearly all actives have a fitted effect of over 50% in size; luciferase read-out
Cruzain noTriton: qHTS Assay for Promiscuous and Specific Inhibitors of Cruzain (without detergent); Cruzipain (Trypanosoma cruzi), P25779; purified cruzain, Z-FR-AMC fluorescence, no detergent; Potency, µM, inactives show max response, negative = inhibition, most hits filed as inhibitors; 200,000 compounds, 2.3% hits; AID 1476, 2009; active = well fitted curve in the direction sought with a large enough effect; inconclusive = small, poorly fitted or top-dose-only effect, or another doubt; inactive = no such curve, though single readings can be large; an effect the other way counts as inactive or inconclusive;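 also: plate controls were enzyme without inhibitor for no effect and buffer without enzyme for full effect; nearly all actives have a fitted effect of over 40% in size; top concentration of the series not given in the record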
Target sequence (P25779 123-467 limits assumed): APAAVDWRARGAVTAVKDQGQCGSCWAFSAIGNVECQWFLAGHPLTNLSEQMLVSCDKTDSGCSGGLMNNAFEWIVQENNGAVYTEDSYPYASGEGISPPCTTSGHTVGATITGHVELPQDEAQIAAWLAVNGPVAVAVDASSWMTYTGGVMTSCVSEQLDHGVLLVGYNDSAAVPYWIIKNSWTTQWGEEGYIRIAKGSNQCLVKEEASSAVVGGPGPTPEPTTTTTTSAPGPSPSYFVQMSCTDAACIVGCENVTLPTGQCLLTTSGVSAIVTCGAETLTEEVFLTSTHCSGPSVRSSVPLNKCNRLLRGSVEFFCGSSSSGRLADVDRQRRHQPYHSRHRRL
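Purified cruzain at 1.5 nM, pre-incubated 15 min with compound at room temperature in 100 mM sodium acetate pH 5.5, 5 mM DTT, 0.00005% Triton X-100. Reaction started with 2 uM Z-FR-AMC; AMC fluorescence increase over 60 s gives rate.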
MARV entry inh: qHTS for inhibitors of binding or entry into cells for Marburg Virus | AID 540276, 2011 | 300,000 compounds, 1.8% hits | Potency, µM (highest dose often 37.8 µM), for the others: top-dose activity change, negative = inhibition, usual class: inhibitors | Marburg virus pseudotyped entry inhibition, cell reporter; control for the full effect not named in the record; about a third of the inactives were read at about 46 µM; active = well fitted inhibition curve with a large enough effect; inconclusive = small, poorly fitted or top-dose-only effect, or effect the other way; inactive = flat fitted curve, though single readings scatter; tested in HEK293 cells; about a fifth of its hits are not listed in these tables; also: % is scaled to controls: 0 for no effect and ±100 for the full control effect; luciferase read-out
SARS PLpro yeast: qHTS of Yeast-based Assay for SARS-CoV PLP | S. cerevisiae expressing SARS-CoV PLpro, growth rescue; control for the full effect not named in the record | Potency, µM (titrated, usually from 32.9 µM), without a hit: top-dose activity, positive = growth rescue | 330,000 compounds, 0.19% hits | AID 485353, 2010; also: 0% is about no effect; nearly all actives have a fitted effect of over 55% in size; growth read by luminescence after 48 h
Cruzain Triton: qHTS Assay for Promiscuous and Specific Inhibitors of Cruzain (with detergent). Cruzipain (Trypanosoma cruzi), P25779. 200,000 compounds, 0.43% hits. purified cruzain, Z-FR-AMC fluorescence, 0.01% Triton. Potency, µM, inactives show max response, negative = inhibition, actives largely listed as inhibitors. AID 1478, 2009; active = well fitted curve in the direction sought with a large enough effect; inconclusive = small, poorly fitted or top-dose-only effect, or another doubt; inactive = no such curve, though single readings can be large; an effect the other way counts as inactive or inconclusive;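 also: plate controls were neutral wells for no effect and buffer without enzyme for full effect; nearly all actives have a fitted effect of over 40% in size; top concentration of the series not given in the record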
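Z-FR-AMC hydrolysis (2 uM substrate) by cruzain (1.5 nM) monitored kinetically at ex 360/em 450 nm after 15 min room-temperature compound exposure; 0.01% Triton X-100, pH 5.5, 5 mM DTT.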
RE007 growth inh: qHTS Assay for Inhibitors of the HIV-1 protein Vpr. Potency, µM (highest dose often 92.2 µM), inactives show at the highest dose activity change, negative = less growth. S. pombe RE007 Vpr strain, BacTiter-Glo ATP luminescence, 24 h; control for the full effect not named in the record. 360,000 compounds, 0.21% hits; active = well fitted falling curve with a large enough effect; inconclusive = small, poorly fitted or top-dose-only effect; inactive = no such curve, though single readings can be large or run the other way;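 also: % is scaled to controls: 0 for no effect and ±100 for the full control effect; nearly all actives have a fitted effect of over 50% in size; the assay follows cell death caused by Vpr and the record does not say whether a fall means rescue or toxicity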
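Fission yeast RE007 carrying one integrated HIV-1 vpr copy, seeded at OD 0.01 in PMG+AL medium with 23 nL pinned compound. Grown 24 h at 30 degrees; viability read by BacTiter-Glo luminescence after 5 min.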
Active calls of the source: *; ? = inconclusive; / = no result given; & = joins results of further samples; [ ] = dose if it differs, or a comment. Unless noted, calls follow the shape of the dose curve; as a rule, active means well fitted rising curve with a large enough effect; inconclusive means small, poorly fitted or top-dose-only effect; inactive means no such curve, though single readings can be large or run the other way. Potency is read from the fitted curve at half-maximal effect.

Screens in order: 2A StopGo	NS1 function inh	LASV entry inh	Cruzain noTriton	MARV entry inh	SARS PLpro yeast	Cruzain Triton	RE007 growth inh
COc1ccc2nc(CCN(C)C(=O)C3CCC(=O)N(Cc4cccc(F)c4)C3)[nH]c2c1 (centres undefined)
→ -6%	2%	/	/	/	3%	/	-20%
Cc1ccc(SCC(=O)OCC(=O)NC(C)c2ccc(Br)cc2)cc1 (centres undefined)
→ -21%	/	3%	/	?	-1%	/	6%
COC(C(=O)NNC(=O)CCc1ccccc1)c1ccccc1 (centres undefined)
→ 33%[activator]	/	-9%[46.1 µM]	/	-1%[46.1 µM]	0%	/	-5%
O=c1[nH]c(=O)n(C2CCCCCC2)c(O)c1C=NCC1CCCO1 (centres undefined)
→ 0%	-5%	0%	8%	?	0%	-2.9%	-3%
COc1ccc(C)cc1NC(=O)Nc1ccccc1SC
→ -6%	-2%	1%	/	-10%[46.1 µM]	-1%	/	-13%
COc1ccc(NC(=O)CSc2nc3c(oc4ccccc43)c(=O)n2Cc2ccco2)cc1Cl
→ 7%	/	/	18%	?	/	-2.8%	/
CCN(CC)S(=O)(=O)c1ccc(NC(=O)c2c(-c3ccccc3)noc2C)cc1
→ -6%	-14%	?	3%	-35%	?	-2.9%	7%
COc1ccc(CCNC(=O)C2CC=CCC2C(=O)O)cc1 (centres undefined)
→ -21%	14%	/	/	/	-4%	/	12%
CCCOc1ccc(Cn2c(C)nc([N+](=O)[O-])c2SCC(O)COC)cc1[N+](=O)[O-] (centres undefined)
→ -6%	5%	10%	?	5%	-1%	-3.6%	9%
COc1ccc(N2CCN(S(=O)(=O)c3c[nH]c(=O)[nH]c3=O)CC2)cc1
→ -15%	/	7%	/	-1%[46.1 µM]	-1%	/	-1%
O=C(COC(=O)c1ccc(F)cc1)Nc1ccc(Cl)cn1
→ 0%	-3%	16%	/	0%	0%	/	6%
CCOc1ccc(-c2c(C(=O)N/N=C/c3sccc3C)nnn2-c2nonc2N)cc1
→ 3%	-6%	/	/	/	-10%	/	23%
CCCCCC(=O)N1CCN(CCN=CC2=C(O)CC(c3cccs3)CC2=O)CC1 (centres undefined)
→ -19%&-10%	-8%	2%&3%	12%	-9%&-5%	-7%	-6.0%	12%&-7%
O=C(O)c1cc(Cl)nc2ccccc12
→ -15%	5%	/	/	/	-1%	/	-6%
CNCc1cc(Br)c(OCC(=O)Nc2ccccc2OC)c(OC)c1
→ -3%	0%	-14%[46.1 µM]	/	?	0%	/	11%
CCC(=O)Nc1ccc(C(=O)Nc2c[nH]c(=O)[nH]c2=O)cc1
→ -1%	/	-19%	/	0%[46.1 µM]	0%	/	15%
CC1CN(C(=O)CCC(=O)NCc2cccs2)c2ccccc2O1 (centres undefined)
→ -7%	/	-16%[46.1 µM]	?	?	/	-4.0%	/
O=C(CCNC(=O)c1ccco1)Nc1ccccc1N1CCOCC1
→ -3%	/	13%[46.1 µM]	/	20%[46.1 µM]	-4%	/	12%
Cc1ccc(N2CCN(c3ccc([N+](=O)[O-])cn3)CC2)c(C)c1
→ ?	-1%	/	/	/	0%	/	-7%
Cc1ccc(C2CC(=O)NC(SCc3ccccc3)=C2C#N)o1 (centres undefined)
→ ?	-30%	-19%	9%	2%	3%	-2.0%	-3%
COc1ccc(S(=O)(=O)N2CCC(C(=O)N3CCC(C(N)=O)CC3)CC2)cc1Cl
→ -13%	3%	18%[46.1 µM]	/	-13%[46.1 µM]	0%	/	2%
CN1CCN(c2nc3c(c(=O)[nH]c(=O)n3C)n2Cc2cccc3ccccc23)CC1
→ -4%	-7%	17%	0%	-4%	1%	2.7%	-8%
CC(=O)Nc1ccc(N2Cc3ccccc3C2)cc1
→ -3%	?	?	/	?	-3%	/	9%
COc1ccc(CC(=O)OCC(=O)Nc2cccc(C(C)=O)c2)cc1OC
→ -14%	/	11%	/	-4%[46.1 µM]	-6%	/	0%
O=C(CCn1c(=S)[nH]c2ccccc2c1=O)NCCCN1CCCC1=O
→ -16%	6%	3%	8%	8%	-2%	0.2%	-3%
CC(=O)c1ccc(NC2OC(CO)C(O)C(O)C2O)cc1 (centres undefined)
→ 14%	-4%	1%	7%	5%[46.1 µM]	-1%	7.4%	1%
COc1cccc(CNc2nn[nH]n2)c1OC
→ 5%	9%	7%	-11%	?	1%	-3.3%	-5%
COc1ccc(C(c2c(C)n(C)n(-c3ccccc3)c2=O)c2c(C)n(C)n(-c3ccccc3)c2=O)c(OC)c1OC
→ -4%	8%	20%	/	-3%	0%	/	-7%
CCCC(=O)Nc1cccc(OCc2cc(=O)n3cccc(C)c3n2)c1
→ 11%	/	14%[46.1 µM]	-14%	/	/	5.6%	/
CCCCNC(=O)CCCCCNS(=O)(=O)c1ccc(OC)cc1
→ 24%	1%	17%[14.3 µM]	4%	-8%	?	4.6%	0%

Structures shown so far that have a nitro group on carbon, in the order listed:
Screens in order: 2A StopGo	NS1 function inh	LASV entry inh	Cruzain noTriton	MARV entry inh	SARS PLpro yeast	Cruzain Triton	RE007 growth inh
CCCOc1ccc(Cn2c(C)nc([N+](=O)[O-])c2SCC(O)COC)cc1[N+](=O)[O-] (centres undefined)
→ -6%	5%	10%	?	5%	-1%	-3.6%	9%
Cc1ccc(N2CCN(c3ccc([N+](=O)[O-])cn3)CC2)c(C)c1
→ ?	-1%	/	/	/	0%	/	-7%

(list continues)
Screens in order: 2A StopGo	NS1 function inh	LASV entry inh	Cruzain noTriton	MARV entry inh	SARS PLpro yeast	Cruzain Triton	RE007 growth inh
O=C(c1ccccc1O)N1N=C(C(F)(F)F)CC1(O)c1ccc([N+](=O)[O-])cc1 (centres undefined)
→ -19%	-12%	/	/	/	-11%	/	-16%
CCCc1nnc(NC(=O)CCC(=O)NCc2ccc(Cl)cc2Cl)s1
→ -8%	11%	/	/	/	-2%	/	2%
C=Cc1ccc(Cn2c(C(=O)O)c(CNC3CCCC3)c3ccc(C)cc32)cc1
→ -3%	/	-14%[46.1 µM]	?	/	/	-6.8%	/
Cc1cc(C)c(OCCOCCN(C)C)c(Br)c1
→ -27%	14%	-20%	-18%	?	-5%	1.8%	?
COc1cc(NC(=O)CCc2ccccc2)nc(OC)n1
→ 35%[activator]	-9%	4%	-9%	?	/	2.1%	-15%
Cc1nc(N2CCCC2)c2c(C(=O)N3CCN(c4cccc(Cl)c4)CC3)c(C)oc2n1
→ -20%	/	-19%[46.1 µM]	?	/	/	-2.2%	/
O=S(=O)(Cc1ccc(Cl)cc1)NCc1ccc2c(c1)OCO2
→ -9%	-10%	/	/	/	0%	/	-7%
COC(=O)c1sc(N2C(=O)C(O)=C(C(=O)c3ccc(C)o3)C2c2ccc(OC)c(OC)c2)nc1C (centres undefined)
→ 0%	?	/	/	/	-4%	/	-12%
O=C(Nc1cc(C(F)(F)F)ccc1Cl)c1cnn(-c2ccccc2)c1-n1cccc1
→ 32µM*	/	-2%[46.1 µM]	-5%	/	/	-7.2%	/
CCOc1ccc(-c2[nH]ncc2-c2ccccc2)c(O)c1
→ -19%	-73%	/	/	/	-8%	/	3%
COc1ccc(N2CC(C(=O)NC3CCCCC3)CC2=O)cc1 (centres undefined)
→ 11%	-7%	16%	/	3%[46.1 µM]	-1%	/	16%
CCCOC(=O)CSc1nnc2ccc3ccccc3n12
→ 0%	/	4%[46.1 µM]	-1%	-1%[46.1 µM]	/	-4.2%	/
Cc1ccc2[nH]c3c(=S)nc[nH]c3c2c1
→ 17%	9%	0%	-9%	?	/	0.0%	/
CC(C)c1ccc(NC(=S)NNC(=O)c2cccnc2)cc1
→ 79%[activator]	-5%	/	/	/	1%	/	21%
CCOC(=O)C(C)Sc1cnccn1 (centres undefined)
→ -8%	-2%	/	/	/	0%	/	17%
CNc1cc([N+](=O)[O-])ccc1N/C=C/C(=O)c1cccs1
→ -9%	29%	9%	-7%	13%[46.1 µM]	22%	-12%	0%
CCOc1ccc(-n2c(N)c(C(=O)NCc3ccco3)sc2=S)cc1
→ 14%	6%	-2%	13%	-13%	4%	-4.9%	-5%
CCOC(=S)SCc1cn2ccccc2n1
→ 39%[activator]	/	14%	/	-16%[46.1 µM]	-2%	/	/
CCOC(=O)C1CCCN(S(=O)(=O)Cc2ccccc2)C1 (centres undefined)
→ /	-6%	6%	-11%	-3%	1%	2.5%	-12%
CCOC(=O)CSc1nnc2n1C(C)(C)Cc1ccccc1-2
→ 12%	-5%	13%	-4%	-1%	-20%	-0.4%	0%
O=C(O)Cc1ccc(NC(=O)c2ccc(NC(=O)c3ccco3)cc2)cc1
→ -4%	12%	-3%	?	2%	1%	1.2%	-12%
Nc1c(C(=O)CSc2n[nH]c(-c3ccccc3)n2)c(=O)[nH]c(=O)n1C1CC1
→ -8%	/	4%	/	-8%	-5%	/	27%

One compound at a time, as listed above:
Profile of CCOC(=O)C1CCCN(S(=O)(=O)Cc2ccccc2)C1 (centres undefined) → 2A StopGo = /; NS1 function inh = -6%; LASV entry inh = 6%; Cruzain noTriton = -11%; MARV entry inh = -3%; SARS PLpro yeast = 1%; Cruzain Triton = 2.5%; RE007 growth inh = -12%
Profile of CC(C)c1ccc(NC(=S)NNC(=O)c2cccnc2)cc1 → 2A StopGo = 79%[activator]; NS1 function inh = -5%; LASV entry inh = /; Cruzain noTriton = /; MARV entry inh = /; SARS PLpro yeast = 1%; Cruzain Triton = /; RE007 growth inh = 21%
